From PubChem BioAssay
VDR inh: Inhibitors of the vitamin D receptor (VDR): qHTS | Potency, µM, inactives show max response, negative = inhibition, hits mostly inhibitors | VDR-SRC2-3 peptide fluorescence polarization, 2 h | AID 504847, 2011 | 0.93% of 400,000 active | Vitamin D3 receptor (Homo sapiens), P11473; active = well fitted inhibition curve with a large enough effect; inconclusive = small, poorly fitted or top-dose-only effect, or another doubt; inactive = no such curve, though single readings can be large or run the other way; also: series mostly up to about 120 µM
Target sequence (P11473 whole entry, looked up): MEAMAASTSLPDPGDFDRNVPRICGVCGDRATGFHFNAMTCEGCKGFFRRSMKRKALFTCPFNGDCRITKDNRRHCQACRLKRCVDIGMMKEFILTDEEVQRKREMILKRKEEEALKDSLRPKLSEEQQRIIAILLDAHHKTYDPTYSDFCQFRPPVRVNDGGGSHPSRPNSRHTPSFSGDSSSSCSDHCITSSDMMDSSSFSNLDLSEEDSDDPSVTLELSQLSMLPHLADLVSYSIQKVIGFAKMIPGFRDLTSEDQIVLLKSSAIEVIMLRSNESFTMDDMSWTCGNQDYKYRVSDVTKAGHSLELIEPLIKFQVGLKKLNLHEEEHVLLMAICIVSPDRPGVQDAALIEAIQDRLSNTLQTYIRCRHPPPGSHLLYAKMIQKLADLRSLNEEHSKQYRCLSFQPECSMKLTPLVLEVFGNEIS
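Compounds are added to VDR with labelled SRC2-3 coactivator peptide and held 2 h at room temperature. Inhibition of the VDR–peptide interaction is then read as a change in fluorescence polarization.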
The depositor's hits bear a star; u = inconclusive; [ ] = another dose, or the depositor's remark. % is scaled to controls: 0 for no effect and ±100 for the full control effect; potency is read from the fitted curve at half-maximal effect.

VDR inh | Structure
-1% | Cc1nc(N2CCN(c3ccccn3)CC2)c2c(C)c(C(=O)Nc3c(F)cc(F)cc3Br)sc2n1
-16% | COCCN1C(=O)c2oc3ccccc3c(=O)c2C1c1ccc(C(=O)OC)cc1 (stereo unspecified)
-5% | O=C(CSc1nc2ccccc2o1)Nc1nc2ccc(Br)cc2s1
-1% | COC(=O)c1sccc1NC(=O)COc1ccc(F)cc1Cl
-12% | CC(=O)Oc1ccc(-c2nc(-c3cccnc3)no2)cc1
-28% | O=C(OCC(=O)N1CCc2ccccc21)c1ccccn1
15% | O=C(/C=C/c1ccccc1)N1CCN(Cc2cc(=O)n3nc(-c4ccccc4)sc3n2)CC1
8% | O=C(Cn1c(=O)n(Cc2ccc(F)cc2)c(=O)c2sc3ccccc3c21)Nc1ccc(F)cc1F
-5% | COc1ccc(CN2CCNC(=O)C2CC(=O)N(Cc2nccn2C)C(C)C)c(OC)c1 (stereo unspecified)
-19% | NC(=O)CSc1cn(Cc2ccc(F)cc2)c2ccccc12
11% | COc1ccc2c(c1)c1c(c(=O)n(CCc3ccccc3)c(=O)n1Cc1cccc(F)c1)n2C
5% | Cc1ccc(-n2nc(C(=O)N3CCN(c4cc(Cl)ccc4C)CC3)c(=O)n(C)c2=O)cc1
15% | COC(=O)c1ccc2c(c1)N(Cc1ccc(Cl)cc1)C(=O)c1ccccc1S2
-8% | C=C(C)c1cccc(C(C)(C)NC(=O)Nc2cccnc2)c1
4% | COc1ccc(/C=N/NC(=O)CN(C2=NS(=O)(=O)c3ccccc32)c2ccccc2)cc1
-5% | COc1ccc(C(CNC(=O)CCNS(=O)(=O)c2ccc(Br)cc2)N2CCCC2)cc1 (stereo unspecified)
3% | C/C(Cc1nnn(-c2cc(C)on2)n1)=N\O
u | COC(=O)C1=C(C(=O)OC)C(c2cc(Cl)ccc2O)c2sc(=O)[nH]c2S1 (stereo unspecified)
-15% | Cc1ccc(S(=O)(=O)Cc2ccc(C(=O)O)o2)cc1
5% | CCCN(c1ccccc1CC)S(=O)(=O)c1ccc2c(c1)CC(C)N2C(=O)C1CC1 (stereo unspecified)
-7% | S=C(NN=C(C1CC1)C1CC1)Nc1ccccc1
0% | CCOc1ccccc1OCC(=O)OCC(=O)NNC(=O)c1ccc([N+](=O)[O-])cc1
-8% | Cc1c(Br)c(C(F)(F)F)nn1CC(=O)NCc1ccco1
5% | CC(C)[C@H](NC(=O)c1ccccc1)C(=O)OCC(=O)Nc1ccc(S(=O)(=O)N2CCOCC2)cc1
-8% | CC(C)C[C@H](NC(=O)c1nc[nH]c1C(=O)NCc1ccc(CNC(=O)OC(C)(C)C)cc1)C(=O)OC(C)(C)C
-10% | Nc1nnc(SC2CC(=O)N(c3ccccc3)C2=O)s1 (stereo unspecified)
-14% | CCOC(=O)C1CCCN(C(=O)C(=O)c2cn(CC(=O)N3CCOCC3)c3ccccc23)C1 (stereo unspecified)
4% | CC(C)N1CCC(N2CCN(C3CCCCC3)CC2CCO)CC1 (stereo unspecified)
4% | Cc1ccc(C(=O)N2CCN(c3ccccc3)CC2)cc1S(=O)(=O)N1CCCC1
0% | COc1cc(C(=O)Nc2ccc(S(=O)(=O)Nc3cnc4ccccc4n3)cc2)cc(OC)c1OC
u | CC(C)C(=O)Nc1ccc(NC(=O)c2ccco2)cn1
9% | CC1CCCC(NC(=O)COC(=O)c2ccc([N+](=O)[O-])s2)C1C (stereo unspecified)
4% | COC(=O)[C@@H]1CC[C@@](C)(c2ccc(OC)cc2)C1(C)C
7% | COc1ccc(-c2cn[nH]c2-c2ccc(OCc3ccccc3)cc2O)cc1
-19% | CCCN1CCC(NC(=S)Nc2ccc(C(=O)OCC)cc2)CC1
16% | CN(c1cccc(Cl)c1)S(=O)(=O)c1cccc(C(=O)Nc2ccc3c(c2)CCC3)c1
17% | O=C(Nc1cccc(OCC(=O)N2CCOCC2)c1)C1CCCCC1
-15% | CCc1cc(=O)oc2c(CN3CCN(C)CC3)c(O)c(Cl)cc12
-1% | CCOC(=O)N1CCc2c(sc3c2C(=O)NC(c2ccc(N(C)C)cc2)N3)C1 (stereo unspecified)
12% | Cc1ccc(S(=O)(=O)Nc2ccc3c(c2)CCCN3C(=O)c2cccs2)cc1C
-20% | CC(C)N(C(=O)[C@H]1C[C@H](CC(=O)NCc2cccc(C(F)(F)F)c2)C(=O)N2CCc3c([nH]c4cc(-c5ccco5)ccc34)[C@]12C)C(C)C
-5% | CCOc1ccc(-c2nnc(SCC(=O)c3ccc(Br)cc3)n2-c2ccccc2)cc1
u | CCCCn1c(N)c(N(CC(C)C)C(=O)c2cc(Cl)nc3ccccc23)c(=O)[nH]c1=O
-12% | COC(=O)c1ccc(/C=N/NC(=O)C(=O)NCc2ccccc2)cc1
-14% | COCCN(CC(=O)Nc1ccccc1C(F)(F)F)C(=O)/C=C/c1cc(Cl)c2c(c1)OCCO2
u | O=C(C1CCCN(S(=O)(=O)c2ccc(Br)s2)C1)N1CCN(c2ccccc2F)CC1 (stereo unspecified)
8% | Cn1c(=O)n(C)c2cc(NS(=O)(=O)c3ccccc3)c(NCc3ccccc3)cc21
14% | CCc1cc2cc(C(=O)N3CCN(c4ccccc4)CC3)sc2s1
5% | CCc1ccc(S(=O)(=O)NCc2csc(C)n2)s1
-6% | O=C(NC(=S)Nc1ccc(Br)cc1)C1CCCCC1
-13% | COc1ccccc1-n1c(-c2ccco2)n[nH]c1=S
-8% | O=C(NCCc1ccccn1)c1cccc(S(=O)(=O)N2CCc3ccccc32)c1
-10% | Cc1cccnc1NC(=O)Cn1nc(C)c([N+](=O)[O-])c1C
-4% | Nc1nc2n(n1)C(c1ccco1)CC(c1ccc(F)cc1)N2 (stereo unspecified)
3.5µM* | O=S(=O)(/N=S1/CC=CCN1S(=O)(=O)c1ccccc1)c1ccccc1 (stereo unspecified)
-8% | COc1cc(C2C3C(=O)N(Cc4ccccc4)C(=O)C3ON2c2ccccc2)cc(OC)c1O (stereo unspecified)
-6% | Cc1ccc(Nc2nnc(SCC(=O)Nc3ccc(S(=O)(=O)N4CCOCC4)cc3)s2)cc1
16% | CCOc1ccc(CCNC(=O)c2c(C)oc3ncn(CC(C)C)c(=O)c23)cc1
-14% | COc1ccc(C)cc1-n1nnnc1SC(C)C(=O)NC1CCCC1 (stereo unspecified)
-10% | N#Cc1cc2c(nc1SCc1ccncc1)CCC2

Brought forward from above: three entries, followed by the next part.
VDR inh | Structure
16% | CCOc1ccc(CCNC(=O)c2c(C)oc3ncn(CC(C)C)c(=O)c23)cc1
-14% | COc1ccc(C)cc1-n1nnnc1SC(C)C(=O)NC1CCCC1 (stereo unspecified)
-10% | N#Cc1cc2c(nc1SCc1ccncc1)CCC2
2% | CC(C)C[C@@H](CC(=O)N[C@@H](CCC(=O)O)CC(=O)O)NC(=O)[C@@H]1CNCC[C@H]1NC(=O)C[C@@H](NC(=O)C[C@H](Cc1c[nH]c2ccccc12)NC(=O)[C@@H]1CCCC[C@H]1N)C(C)C
89µM* | CC1CCC(C(C)C)C2=C1C(C#N)(C#N)C(C#N)(C#N)C(c1ccccc1)N2 (stereo unspecified)
3% | CC(C)C(NC(=O)c1ccccc1)c1nnc(SCC(=O)Nc2nccs2)n1C (stereo unspecified)
5% | CC(=O)c1cccc(NC(=O)Nc2ccc(C)cc2)c1
10% | CCOC(=O)C1CCN(C(=O)c2ccc(OC3CCN(C(=O)COC)CC3)cc2)CC1
-16% | Nc1ccccc1-c1ccc(Cl)cc1
-22% | Nc1c(O)ccc2c1C(=O)c1ccccc1C2=O
1% | CCOc1ccc(CN(C(=O)c2cccs2)C2CCS(=O)(=O)C2)cc1 (stereo unspecified)
-15% | CC(=O)NNc1cccc(Cl)n1
-9% | Cc1ccc(OC(=O)c2cccc(S(=O)(=O)N(C)C)c2)c(-n2nc3ccccc3n2)c1
13% | CC(=O)Nc1ccc(NC(=O)CSc2ncc(C(=O)Nc3ccccc3)c(=O)n2C)cc1
-2% | Cn1cccc1C(=O)N1CCC2(CCN(Cc3ccccc3)CC2)CC1
-26% | CSc1ccccc1NC(=O)C(C)N(C)CC(=O)N1CCN(Cc2ccccc2)CC1 (stereo unspecified)
11% | O=S(=O)(c1ccccc1)c1nnn2c1nc(NCc1ccccc1)c1sccc12
-2% | CC(C)NC(=O)N1CC[C@@]2(CCCN(C(=O)c3csnn3)C2)C1
-16% | O=C(O)Cn1cc(F)c(=O)[nH]c1=O
u | CC(C)C[C@@H](CN(C)N=O)N(C[C@H](Cc1ccccc1)N(CCc1ccccc1)N=O)N=O
3% | C=CCC(Nc1ccco1)c1ccccc1 (stereo unspecified)
4% | CCCN(CCC)C(=O)c1c[nH]c2ccc(S(=O)(=O)N(C)c3ccc(OCC)cc3)cc2c1=O
59%[activator] | COc1ccccc1/C=C(\C)C(=O)c1c(C)cc(C)[nH]c1=O
5% | CCOC(=O)N1CCC(N(C(=O)Nc2ccc(Cl)c(Cl)c2)C(C)CC)CC1 (stereo unspecified)
6% | Cc1ccc2nc(SCC(=O)NC3CCCC3)[nH]c2c1
-6% | O=c1c2sccc2[nH]c(=S)n1Cc1ccccc1
u | CC1CCN(C2=NN3C(=N)/C(=C\c4ccc(OC(=O)c5ccco5)cc4)C(=O)N=C3S2)CC1
11% | COC(=O)Nc1ccc([N+](=O)[O-])cc1OC
-18% | COC(=O)Cn1c(=NC(=O)C2CC2)sc2c(C)cc(C)cc21
-8% | CC(C)NC(=O)C1CCN(C2CCN(C(=O)c3cc4c(s3)CCCCC4)CC2)CC1
-2% | CCOC(=O)c1c(C)[nH]c(C(=O)Cn2c(=O)c3c(ncn3CC)n(Cc3ccccc3)c2=O)c1C
-11% | Nn1c(SCC(=O)Nc2nc3ccccc3s2)nncc1=O
-8% | NCC1CC2c3ccccc3C1c1ccccc12 (stereo unspecified)
-6% | COCCNC(=O)c1ccc(NC(=O)N2CCCCc3ccccc32)cc1
2% | CC(C)C(=O)NNC(=O)c1cc2sccc2s1
-20% | COCCN1C(=O)/C(=C/c2ccc(OCc3ccc(C(=O)O)cc3)c(OC)c2)SC1=Nc1ccccc1
9% | COc1ccc(OCC(=O)N2c3ccc(C)cc3C3CN(C)CCC32)cc1 (stereo unspecified)
-6% | COc1ccc(C(=O)N2CCN(c3ncccn3)CC2)cc1[N+](=O)[O-]
-10% | COc1cc(C2=NOC(C(=O)Nc3cc(C)on3)C2)cc(OC)c1OC (stereo unspecified)
9% | COc1cc(-c2nnc(SCC(=O)Oc3ccc(C)cc3C)o2)cc(OC)c1OC
-8% | COc1cc2ccccc2cc1C(=O)Nc1ccc(Cl)cn1
-3% | O=C(COc1ccccc1[N+](=O)[O-])NCC1(N2CCCCC2)CCCCC1
-3% | COc1cc(/C=C/c2nc(C#N)c(N3CCC(C)CC3)o2)cc(OC)c1OC
-1% | O=C(CSc1ccccc1C(=O)NCc1ccccc1)NC1CCCCCCC1
17% | C[C@H](NC(=O)c1nc[nH]c1C(=O)N[C@@H](CCCCNC(=O)OC(C)(C)C)C(=O)OC(C)(C)C)c1ccccc1
12% | O=C(/C=C/c1ccc(F)cc1)NC(=S)Nc1ccccc1
0% | C#CCOCCOCCOCCNc1nc(N2CCN(C(=O)C([C@@H](C)O)n3cc([C@@H](N)CCCCN)nn3)CC2)nc(N2CCN(C(=O)[C@H](CCC(=O)O)n3cc([C@@H](N)CCCCN)nn3)CC2)n1 (stereo partly specified)
4% | COCCn1c(=O)[nH]c(=O)c2c(C(F)(F)F)cc(-c3cccs3)nc21
-2% | CCNc1nc(NCC)n2c(SCC(=O)N(CC)C3CCCCC3)nnc2n1
-1% | O=C(O)CCC1(CCC(=O)O)CCCC(CCC(=O)O)(CCC(=O)O)C1=O
-11% | Cc1sc2ncn(CC(=O)N3CCN(c4ccccc4)CC3)c(=O)c2c1S(=O)(=O)N1CCC(C)CC1
6% | CCn1c(CCNC(=O)c2ccc(Cl)cc2Cl)n[nH]c1=S
21% | Cc1cc(/C=N/O)c(C)n1-c1ccc(Br)cc1
-8% | Brc1cccc(OCCCCN2CCCCC2)c1
4% | CCN(CC)S(=O)(=O)c1ccc(Cl)c(NC(=O)COC(=O)c2cc(-c3ccccc3Cl)nc3ccccc23)c1
13% | CSc1nc2c([nH]1)c(=S)n(C)c(=O)n2C
9% | CCCN1C(=O)c2ccc(C(=O)Nc3ccc4c(c3)OCO4)cc2C1=O
u | O=C1c2ccccc2-c2onc3c(NCCO)cc(NC4CCCCC4)c1c23

Compounds from the list above with fluorine (13):
VDR inh | Structure
-1% | Cc1nc(N2CCN(c3ccccn3)CC2)c2c(C)c(C(=O)Nc3c(F)cc(F)cc3Br)sc2n1
-1% | COC(=O)c1sccc1NC(=O)COc1ccc(F)cc1Cl
8% | O=C(Cn1c(=O)n(Cc2ccc(F)cc2)c(=O)c2sc3ccccc3c21)Nc1ccc(F)cc1F
-19% | NC(=O)CSc1cn(Cc2ccc(F)cc2)c2ccccc12
11% | COc1ccc2c(c1)c1c(c(=O)n(CCc3ccccc3)c(=O)n1Cc1cccc(F)c1)n2C
-8% | Cc1c(Br)c(C(F)(F)F)nn1CC(=O)NCc1ccco1
-20% | CC(C)N(C(=O)[C@H]1C[C@H](CC(=O)NCc2cccc(C(F)(F)F)c2)C(=O)N2CCc3c([nH]c4cc(-c5ccco5)ccc34)[C@]12C)C(C)C
-14% | COCCN(CC(=O)Nc1ccccc1C(F)(F)F)C(=O)/C=C/c1cc(Cl)c2c(c1)OCCO2
u | O=C(C1CCCN(S(=O)(=O)c2ccc(Br)s2)C1)N1CCN(c2ccccc2F)CC1 (stereo unspecified)
-4% | Nc1nc2n(n1)C(c1ccco1)CC(c1ccc(F)cc1)N2 (stereo unspecified)
-16% | O=C(O)Cn1cc(F)c(=O)[nH]c1=O
12% | O=C(/C=C/c1ccc(F)cc1)NC(=S)Nc1ccccc1
4% | COCCn1c(=O)[nH]c(=O)c2c(C(F)(F)F)cc(-c3cccs3)nc21

This is a subset; the hit share may differ from the screen's.
